High-throughput results (PubChem)
ClpP mod: qHTS Assay for Activators of ClpP; ATP-dependent Clp protease proteolytic subunit (Bacillus subtilis (strain 168)), P80244; purified B. subtilis ClpP, FRET peptide cleavage, 20 min; Potency, µM (top dose mostly 57.5 µM), without a hit: at the highest dose activity change, negative = active; actives 1.9% (n = 340,000); AID 651965, 2013; active = well fitted falling curve with a large enough effect; inconclusive = small, poorly fitted or top-dose-only effect; inactive = no such curve, though single readings can be large or run the other way; further: potency means the concentration at half of the fitted maximal effect; the source files actives as falling curves though it sought activators and does not explain the sign; nearly all actives have a fitted effect of over 65% in size; many hits overshoot -100%
Target sequence (P80244 whole entry, looked up): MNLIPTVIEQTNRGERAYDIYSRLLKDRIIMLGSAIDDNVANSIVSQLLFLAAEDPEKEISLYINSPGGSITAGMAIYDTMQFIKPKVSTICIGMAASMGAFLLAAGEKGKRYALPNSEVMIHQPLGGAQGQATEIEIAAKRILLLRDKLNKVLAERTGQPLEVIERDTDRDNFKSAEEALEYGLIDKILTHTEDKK
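ClpP 10 microg/mL final, pH 8 Tris/KCl buffer with BSA, glycerol, Tween-20; compound pinned in; FRET-FV substrate; RT 20 min; Ex320/Em430; ΔFRET vs ADEP 5.8 microM, DMSO, no enzyme.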
PINK1 expr mod: PINK1 expression modulation; AID 624263; actives 0.2% (n = 410,000); PINK1 immunofluorescence, high-content cytometry, 24 h; Potency, µM (titrated, usually from 76.6 µM), for the others: at the top dose activation (PINK1 increase), most hits filed as activators; active = well fitted activation curve with a large enough effect; inconclusive = small, poorly fitted or top-dose-only effect; inactive = flat fitted curve, though single readings scatter; cell line not stated here;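 further: potency means the concentration at half of the fitted maximal effect; % of control where 0% means no effect; nearly all actives have a fitted effect of over 65% in size; a mitochondrial uncoupler was the plate control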
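Measures PINK1 amount and localization on or inside mitochondria by immunofluorescence. Stable cells get compounds at 5 concentrations for 24 hours before fixation and staining; CCCP controls included.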
gsp antag: gsp mutant antagonism; gsp-mutant cells, cAMP HTRF, 30 min; control for the full effect not named in the record; AID 624288; actives 0.4% (n = 340,000); Potency, µM (series often up to 76.9 µM), for inactives: top-dose activity change, negative = inhibition, hits mostly inhibitors; active = falling curve of any shape with a large fitted effect; inconclusive = falling curve, mostly with a smaller effect; inactive = flat or rising curve; cell line not stated here;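 further: intracellular cAMP measured with PDE inhibitor Ro 20-1724 present during compound exposure; potency means the concentration at half of the fitted maximal effect; on the % scale 0 is the no-effect control and ±100 the full control effect; nearly all actives have a fitted effect of over 65% in size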
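HTRF cAMP read-out (cAMP-d2 plus anti-cAMP antibody-K in lysis buffer, 30 min RT). Before lysis, cells are exposed to compounds with […] for 30 min at 37C in DPBS containing Ca/Mg, BSA and Tween 20.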
Sfp PPTase inh: Sfp phosphopantetheinyl transferase inhibition; Q9F4F7; Biochemical Sfp PPTase activity, qHTS; Potency, µM, without a hit: max response, negative = inhibition, actives largely listed as inhibitors; actives 3.5% (n = 310,000); AID 1490; active means well fitted inhibition curve with a large enough effect; inconclusive means small, poorly fitted or top-dose-only effect, or another doubt; inactive means no such curve, though single readings can be large or run the other way;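 further: the enzyme is Sfp with the accession as filed and its product quenches rhodamine fluorescence; potency means the concentration at half of the fitted maximal effect; 0% = enzyme reaction without inhibitor and -100% = no enzyme wells; top concentration of the series not given in the record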
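Sfp 15 nM + cpd, 15 min RT; start w/ rhodamine-CoA 5 uM, BHQ-2-YbbR 12.5 uM (final); 50 mM Hepes pH 7.6, 10 mM MgCl2, 0.01% NP-40, 0.01% BSA; read 525/598 nm at 0 and 30 min.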
D2 agonist: activates the human D2 dopamine receptor. P14416. DiscoveRx PathHunter D2 beta-arrestin, luminescence, 90 min; 100% = 57 uM dopamine signal. activation, % (test concentration not listed). actives 0.084% (n = 360,000). AID 624465; in the data active = activation above about 40%; inconclusive = about 15% to 40%; inactive = below about 15%; further: compound concentration not given in the record; the text of the record calls up to 30% inactive
Target sequence (P14416 whole entry, looked up): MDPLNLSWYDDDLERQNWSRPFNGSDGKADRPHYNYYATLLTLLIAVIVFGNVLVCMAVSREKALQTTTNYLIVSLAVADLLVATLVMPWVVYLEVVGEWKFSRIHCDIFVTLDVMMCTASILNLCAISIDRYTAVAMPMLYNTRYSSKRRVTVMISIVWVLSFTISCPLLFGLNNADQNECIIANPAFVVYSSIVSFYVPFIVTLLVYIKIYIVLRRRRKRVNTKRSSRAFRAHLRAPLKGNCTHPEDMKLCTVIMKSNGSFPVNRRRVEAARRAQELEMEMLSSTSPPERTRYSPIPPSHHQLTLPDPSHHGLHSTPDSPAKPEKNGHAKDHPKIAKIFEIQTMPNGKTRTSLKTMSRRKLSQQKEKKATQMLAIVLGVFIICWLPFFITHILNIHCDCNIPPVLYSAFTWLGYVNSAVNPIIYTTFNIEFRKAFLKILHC
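Agonist mode: compounds alone added to overnight-plated D2 PathHunter cells for 90 min at 37 C, with 57 uM final dopamine (EC100) defining full response. Beta-arrestin recruitment detected by chemiluminescent reagent, read after 1 h at ambient temperature.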
gsp agonist: activates gsp, the McCune-Albright syndrome mutation | gsp mutant cells, cAMP HTRF, 30 min; control for the full effect not named in the record | AID 624287 | actives 0.13% (n = 340,000) | Potency, µM (doses to about 76.9 µM), for the others: at the top dose activation (cAMP increase), actives largely listed as activators; active = well fitted activation curve with a large enough effect; inconclusive = small, poorly fitted or top-dose-only effect, or another doubt; inactive = no such curve, though single readings can be large or run the other way; cell line not stated here;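 further: phosphodiesterase inhibitor Ro 20-1724 added with compounds to block cAMP breakdown; potency means the concentration at half of the fitted maximal effect; nearly all actives have a fitted effect of over 60% in size; about a fifth of the inactives were tested at one dose only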
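Cells in DMEM/10% FBS with G418 were pretreated with compounds in DMSO plus […] (300 uM stock) for 30 min at 37C. cAMP was measured by HTRF (cAMP-d2 plus anti-cAMP antibody-K) after 30 min at room temperature.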
Menin MLL FP FL: inhibitors of human menin-MLL interaction, wild-type MLL peptide. Fluorescence polarization, fluorescein-MLL peptide displacement from menin. FP activity change, % at 61.4 µM. 290,000 tested, under 10 active; inconclusive = falling polarisation curve, or a change in total fluorescence; inactive = total fluorescence flat and polarisation flat or rising; no compound was filed as active; the % refers to the polarisation; negative = inhibition;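 further: % of control where 0% means no effect; inhibitors lower the polarisation; unlabelled MLL peptide was the positive control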
* marks the source's active call; other numbers are inactive results; ? = inconclusive; . = no result given; & = joins results of further samples; [ ] = remark or other dose. Rows are unselected; 5.1% or so of the library scored in one or more.

SMILES	ClpP mod	PINK1 expr mod	gsp antag	Sfp PPTase inh	D2 agonist	gsp agonist	Menin MLL FP FL
Cc1ccc2c(COC(=O)C3CC(=O)N(c4ccc5c(c4)OCCO5)C3)cc(=O)oc2c1 (configuration not stated)	-0.6%	-1.0%	1%	.	-2.2	4%[15.4 µM]	.
CC(=O)c1ccc(S(=O)(=O)N2CCCc3ccccc32)cc1	-0.3%	8.1%	-2%	18%	-1.9	7%	-0.3
CCn1c(=O)cc(OCC(=O)N2CCN(c3cccc(C(F)(F)F)c3)CC2)c2ccccc21	-2.2%	-1.5%	?	-6%	0.6	0%	-1.0
CC(=O)c1cccc(NC(=O)C2CCCN2S(=O)(=O)c2ccccc2C(F)(F)F)c1 (configuration not stated)	0.2%	0.2%	.	.	-1.6	-50%[inhibitor]	.
Nc1nnc(-c2ccc(Cl)c(Cl)c2)s1	3.8%	-1.6%	-2%	3%	2.1	-10%	4.5
O=C(CCCc1nc(-c2ccccc2Cl)no1)NCc1cccnc1	0.3%	-1.1%	-2%	18%	-1.4	-1%	3.7
O=S(=O)(c1ccccc1)N1CCC2(CC1)CN(Cc1ccccc1)C2	.	-1.0%	.	5%	.	.	-11
COCCN(C(=O)CSc1nnc(-c2cccc(F)c2)n1N)c1c(N)n(CC(C)C)c(=O)[nH]c1=O	1.8%	0.3%	18%	8%	-5.5	?	.
Cc1csc(SCC(=O)Nc2cccc(C)c2C)n1	-1.3%	0.1%	-4%	.	-0.8	17%	.
Cc1cc(C)c(S(=O)(=O)Nc2ccc(C(N)=O)cc2)c(C)c1	.	-2.5%	3%	7%	1.4	-11%	0.8
CC(=O)c1cccc(OCC(O)CNCCc2ccc(Cl)cc2)c1 (configuration not stated)	-0.1%	4.6%	13%	-27%	3.4	?	-19
NC(=O)C1CCN(C2=C(NS(=O)(=O)c3ccc(Cl)cc3)C(=O)c3ccccc3C2=O)CC1	0.8%	0.3%	-15%	-15%	-3.3	21%	2.9
CC(=O)N1c2ccccc2C2(O)N=C(C)SC12 (configuration not stated)	-3.0%	3.2%	0%	-95%	-2.2	0%	.
COc1ccc(CNC(=O)CSc2nnc(-c3cccnc3)n2N)cc1	.	0.8%	6%	15%	-1.7	-22%[15.4 µM]	1.5
COCCNC(=O)Cn1cc(C(=O)c2cccs2)c2ccccc21	0.6%	-0.8%	10%	.	-2.3	?	.
O=C(NCCc1ccccc1)C1CCCN(c2nc3ccccc3s2)C1 (configuration not stated)	.	-3.1%	-6%	-2%	-0.1	-36%	5.8
Cc1ccc(S(=O)(=O)N[C@@H](CC(C)C)C(=O)NCc2ccco2)cc1	-2.7%	2.3%[38.3 µM]	14%	18%	-1.0	-44%[inhibitor]	4.4
COc1cccc(NC(=O)CN(C)C(=O)c2c(C)nn(-c3ccccc3)c2Cl)c1	-0.5%	-1.1%	2%	.	8.2	9%	.
N#CCC(=O)NNc1c([N+](=O)[O-])cc(C(F)(F)F)cc1[N+](=O)[O-]	.	-0.4%	-28%	11%	-6.2	5%[15.4 µM]	2.6
CSC(=NC1CCCCC1)NS(=O)(=O)c1ccccc1	-1.0%	-3.0%&-1.0%	3%&-18%	3%	-5.9&-4.2	19%&11%	2.7
NC(=O)c1cc(S(=O)(=O)N2CCN(c3ccc([N+](=O)[O-])cc3)CC2)cs1	0.6%	0.8%	-8%	9%	-3.1	?	.
CN(CC(=O)Nc1cccc(F)c1)C(=O)CC1CC2CCC1C2 (configuration not stated)	-0.1%	-0.9%	4%	10%	-4.3	28%	.
O=C(CN(Cc1ccco1)C(=O)c1ccc(N2CCCC2=O)cc1)Nc1ccccc1C(F)(F)F	5.9%	3.9%	-3%	.	2.9	-3%	.
COc1ccc(OC)c(NC(=O)c2cc3c(Cl)nc4ccccc4c3s2)c1	54%	8.4%	6%	-9%	-1.7	1%	2.1
CSc1nc(N)nc(SCC(=O)CC(=O)OC(C)C)c1C#N	-1.3%	-5.1%[38.3 µM]	-14%	9%	0.4	0%	0.5
CCN1CN(CCc2ccccc2)CNC1=S	-0.1%	0.0%	-3%	15%	-0.4	4%[15.4 µM]	2.8
CC(C)N(C(=O)CN1C(=O)NC2(CCCCCC2)C1=O)C(C)C	0.1%	2.8%	-7%	13%	2.8	5%	-1.3
Cc1noc(C)c1S(=O)(=O)N(C)C[C@H]1Oc2c(NC(=O)C3CCCCC3)cccc2C(=O)N([C@H](C)CO)C[C@@H]1C	-0.5%	3.6%	-3%	.	-0.4	.	.
CC(=O)Nc1ccc(NC(=O)c2cc(S(=O)(=O)N3CCCCC3)ccc2C)cc1	1.2%	2.7%	4%	.	3.0	7%	.
Fc1ccc(NC(=S)NC2CCCCC2)c(F)c1F	-1.6%	7.5%	8%	-10%	-0.5	4%[15.4 µM]	0.9
CSc1ccc(C(=O)C2CCCN(Cc3cccc4nccnc34)C2)cc1 (configuration not stated)	.	2.1%	3%	8%	-1.5	18%[15.4 µM]	5.2
C=CCn1c(SCC(=O)NC2CC2)nc2ccccc2c1=O	0.8%	-1.6%	7%	.	0.2	-48%[inhibitor]	.
CC(C)CN(CC(C)C)C(=O)CCCC(=O)N(CC(C)C)CC(C)C	-3.7%	4.4%	-11%	-1%	-3.2	0%	0.0
COc1ccc2ccn(C)c2c1	-11%	-1.2%	9%	.	-6.3	0%	.
CCCCN(C=O)c1c(CC)nc2ccc(C(=O)N3CCN(S(=O)(=O)CC)CC3)cn12	-1.8%	3.0%	.	.	-4.0	.	.
COc1cccc(CNc2nc(NCc3ccccc3OC)nc3ccsc23)c1	-28%	?	.	.	-4.8	.	.
O=C(c1cnccn1)N1CCC2(CCN(Cc3cc(C(F)(F)F)cc(C(F)(F)F)c3)CC2)CC1	.	1.9%	.	2%	.	.	-6.1
COc1cccc(-c2sc3cc(OC)c(OC)cc3c2-c2ccc(OCCN3CCCCC3)cc2)c1	28µM*	-1.2%	1%	.	10	.	.
O=C(NCC(c1cccnc1)N1CCOCC1)NC1CCCCC1 (configuration not stated)	.	-0.4%	2%	-12%	1.6	-9%	2.9
CCC/C(=N\NC(=O)Cc1csc(N2CCOCC2)n1)c1ccccc1	1.2%	1.9%	7%	3%	-2.0	-31%[inhibitor]	-4.2
CCn1c(SCc2nc3ccccc3[nH]2)nnc1-c1ccc(OC)cc1	-3.2%	3.5%[38.3 µM]	-7%	13%	-0.5	1%	0.9
CC(=O)/C=C(\C)NCCNc1c(F)c(F)c(CO)c(F)c1F	-2.2%	3.9%	7%	9%	-1.9	17%	-1.7
COc1ccc(NC(=O)C(=O)N/N=C/c2cccnc2)c(OC)c1	-0.6%	3.9%[38.3 µM]	-16%	12%	-2.5	-29%	1.4
COc1ccc(NC(=O)CCCn2nc(C)c3c(C)n(-c4ccccc4)nc3c2=O)cc1OC	0.4%	0.5%	-7%	21%	5.9	5%	.
O=S(=O)(NC1CCN(Cc2ccccc2)CC1)c1ccc2ccccc2c1	-7.6%	1.9%	15%	-1%	-5.0	13%[15.4 µM]	2.1
Cc1ccc(S(=O)(=O)/N=C2\C=C(Nc3cccc(C(=O)O)c3)C(=O)c3ccccc32)cc1	1.9%	-0.9%	-4%	-23%	-0.3	-37%[inhibitor]	-13
O=C(Nc1nncs1)c1ccc(F)c(S(=O)(=O)N2CCCCC2)c1	1.5%	0.3%	3%	15%	-0.7	17%	-0.1
C=C1CCC2[C@](C)(CO[C@@H]3O[C@H](CO)[C@@H](O)[C@H](O)[C@H]3O)CCC[C@@]2(C)[C@@H]1CCC1=CCOC1=O (some centres not stated)	-0.4%	3.6%	5%	.	-2.0	-14%	.
O=c1c(Cl)c(NCc2ccccc2Cl)cnn1C12CC3CC(CC(C3)C1)C2	-0.2%	?	-16%	-18%	-1.6	-8%	1.2
COCCn1nnnc1C(c1cccs1)N1CCCC(C)C1 (configuration not stated)	-0.5%	-0.8%	7%	23%	-3.9	-63%[inhibitor]	1.1
CCN(CC)S(=O)(=O)c1cccc(NC(=O)COC(=O)CCC(=O)c2ccc(F)cc2)c1	-1.2%	0.8%	-1%	17%	-0.5	-5%	.
CCN(CC(=O)NCc1ccc(Cl)cc1)C(=O)c1ccc2cc(OC)ccc2c1	.	2.2%	3%	-3%	0.1	4%[15.4 µM]	0.7
COCCN(C(=O)C(C)N1C(=O)c2ccccc2C1=O)c1c(N)n(CC(C)C)c(=O)[nH]c1=O (configuration not stated)	1.2%	-1.8%	-1%	.	-3.8	0%	.
O=C(Nc1cccnc1)C1(c2ccccc2)CCCC1	0.6%	-0.4%	-3%	9%	2.2	14%[15.4 µM]	5.3
CCOC(=O)C1=C(C)Nc2ccccc2N=C1NC(=O)Cc1ccc(OC)cc1	-3.4%	-1.4%	-5%	11%	-4.2	?	2.3
Cc1ccccc1CNC(=O)c1ccc2ccccc2n1	-0.4%	-0.2%	-3%	6%	-3.6	11%	4.3
COc1cc(CNC(=O)c2cc(-c3ccc(F)cc3C)n[nH]2)cc(OC)c1	-0.4%	-0.5%	.	.	4.9	.	.
O=C(Nc1c2c(nn1-c1ccc([N+](=O)[O-])cc1)CS(=O)(=O)C2)C1CC1	-0.4%	1.2%	0%	5%	-0.8	?	.
COCCn1c(=O)c(-c2ccc(Cl)cc2)nc2cnc(Oc3cccc(Cl)c3)nc21	.	4.4%	.	?	.	.	-1.4
Cc1ccc(CNc2ccc3c(c2)nc(C)n3C)cc1	.	7.9%	-11%	-7%	-0.9	-13%	-0.7

Carrying on.
SMILES	ClpP mod	PINK1 expr mod	gsp antag	Sfp PPTase inh	D2 agonist	gsp agonist	Menin MLL FP FL
COc1ccc(-c2[nH]c(-c3ccc(C(=O)O)cc3)nc2-c2ccccc2)cc1	32%	-1.2%	-30%	-1%	-2.5	14%	-1.7
CN(C)C(=O)c1ccccc1-c1ccccc1	-0.7%	0.7%	13%	11%	-2.7	-3%	11
CC(C)NC(=O)C1(c2ccccc2)CC1(Cl)Cl (configuration not stated)	0.7%	1.6%	6%	0%	1.1	-15%	-0.8
COc1cccc(CN(C)C(=O)c2sccc2-c2ccccc2)c1OC	-0.4%	1.4%	5%	4%	-1.4	18%	.
CCSc1nc2ccc(C)cc2cc1C#N	-0.8%	1.0%	4%	16%	-1.1	15%[15.4 µM]	-1.9
Cc1nc2cnc(Nc3ccccc3)nc2n(C)c1=O	.	-1.4%	.	-11%	.	.	18
